Mtb H37Rv = Mycobacterium tuberculosis H37Rv growth inhibition, cell based, confirmatory dose response (AID 1949). M. tuberculosis H37Rv growth inhibition. inhibition, % at 10 µg/mL; hits with a dose series show IC50 in µg/mL. most inactive calls were filed without a number and no value below 0 was filed. actives 1.6% (n = 100,000);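 active = confirmed in a dose series; inconclusive = about 50% or more but not retested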;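 note: bacteria grown 7 days with compound before Alamar blue readout; 0% = untreated bacteria and 100% = reference antibiotic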
Numbers without * were called inactive; i = inactive; ? = inconclusive.

SMILES	Mtb H37Rv
c1cncc(-c2nc(Oc3ccc4ccccc4c3)c3ccccc3n2)c1	i
COC(=O)C1=C(C)NC(SCC(=O)NC2CCCCC2)=C(C#N)C1c1ccccc1F (stereo not given)	i
CCCCCCN(CCCCCC)C(=S)NCc1ccco1	5%
N#Cc1c2c(n3cc4ccccc4cc13)C(=O)c1ccccc1C2=O	i
O=C(Nc1cc(Cl)c(O)c(Cl)c1)c1ccco1	i
COc1ccccc1C(=O)Nc1nnc(SCC(=O)Nc2cc(C)ccc2C)s1	i
COC(=O)c1c(NC(=S)Nc2ccn(C)n2)sc(C)c1-c1ccccc1	1%
Cc1oc2c(c1C(=O)NCCO)CCCC2	i
O=c1[nH]c(/C=C\c2cccc(F)c2)nc(O)c1[N+](=O)[O-]	i
CCCNC(=O)c1ccc(NC(=O)OC)cc1	1%
O=C(Nc1nc2ccc3ccccc3c2s1)c1ccc(S(=O)(=O)N2CCOCC2)cc1	3%
Cc1cccc(OCCCCNCc2ccccc2)c1	i
NS(=O)(=O)c1ccc(NC(=O)CSc2nnc(-c3sc4ccccc4c3Cl)o2)cc1	i
Cc1ccc(NC(=O)C(C)NS(=O)(=O)c2ccc(Cl)cc2)cc1Cl (stereo not given)	2.9µg/mL*
O=[N+]([O-])c1ccc(N2CCN(S(=O)(=O)Cc3ccccc3)CC2)cc1NCC1CCCO1 (stereo not given)	i

Two of the compounds above, comma-delimited.
SMILES,Mtb H37Rv
CCCNC(=O)c1ccc(NC(=O)OC)cc1,1%
O=C(Nc1nc2ccc3ccccc3c2s1)c1ccc(S(=O)(=O)N2CCOCC2)cc1,3%

Further compounds follow.
SMILES	Mtb H37Rv
O=C(/C=C/c1ccc(-c2ccc(F)cc2)o1)c1ccc(F)cc1	i
Cc1c(Br)ccc(NC(=O)CSc2nnnn2-c2ccccc2)c1C	3%
COC(=O)c1cc(Cl)c(NC(=O)COc2ccccc2Br)cc1OC	9%
COC(=O)c1sccc1NC(=O)c1ccc(OC)cc1OC	?
CCCNC(=O)Nc1ccccc1C(=O)Nc1ccc(OC)cc1	i
COc1ccc(/C=C/C(=O)c2ccc3ccccc3c2O)cc1Cn1nnc2ccccc21	i
Nc1nnc(-c2cc(-c3ccco3)on2)o1	i
COc1ccc(CCNC(=O)CSc2nccc(=O)[nH]2)cc1OC	i
COc1ccc(S(=O)(=O)N2CCC(C(=O)Nc3ccc(Oc4ccccc4)cc3)CC2)cc1OC	2%
O=C(NC1(C(F)(F)F)N=C(c2ccccc2)NC1=O)c1ccccc1 (stereo not given)	i
CC(=O)c1sc(NC(=O)CCCOc2ccc(Cl)cc2)nc1C	1%
CC1=C(C(=O)Nc2cc(C)ccn2)C(c2cccs2)C2=C(CCCC2=O)N1 (stereo not given)	i
COc1ccc(Cl)cc1-c1nc(-c2cccnc2)no1	i
COc1ccc(C(NC(=O)c2ccccc2F)c2ccc(OC)c(OC)c2)cc1OC	i
CCOc1ccc(NC(=O)NCc2ccccc2OC)cc1	i
O=C(Nc1ccc([N+](=O)[O-])cc1)C1CC(=O)N(c2ccc(F)cc2)C1 (stereo not given)	i
Cc1ccc(NC(=O)C2CCN(C(=O)c3ccc(Cl)cc3)CC2)cc1Cl	i
COc1ccc(Cc2nnc(SCC(=O)Nc3cccc(Cl)c3)o2)cc1	i
O=C(Nc1ccc(C(F)(F)F)cc1)C1CCCC1	i
CCn1cc(-c2nnc(SCC(=O)Nc3ccccc3OC)n2C)c2ccccc21	i
CC(=O)Nc1c(C(=O)N2CCCCCC2)cnn1-c1ccccc1	i
COc1ccc(F)cc1S(=O)(=O)N1CCCN(S(=O)(=O)c2cc(F)ccc2OC)CC1	i
CCn1c(SCC(=O)c2ccc(Cl)cc2Cl)nnc1-c1cc(OC)c(OC)c(OC)c1	i
CCS(=O)(=O)CCSc1nc2c(cc1C#N)CCCC2	i
CC(C)CNC(=O)CN(Cc1ccc(Br)cc1)S(=O)(=O)c1ccc(Cl)cc1	i
O=C1CC(c2cccc([N+](=O)[O-])c2)Sc2nncn21 (stereo not given)	i
CC(C)(c1ccccc1)c1ccc(OCC(=O)NCCC(=O)O)cc1	i
Cc1cccn2c(=O)c(/C=C(\C#N)c3nc4ccccc4[nH]3)c(Oc3ccc(Cl)cc3Cl)nc12	i
Cc1sc2ncn(C)c(=O)c2c1-c1ccc(Br)cc1	i
COc1ccc(NC(=S)NC(C)c2cc(OC)ccc2OC)c(OC)c1 (stereo not given)	i
COc1ccc(NC(=O)CN(C2CCCCC2)S(=O)(=O)c2ccc(C)cc2)cc1OC	2%
O=C(CCN1C(=O)c2ccccc2C1=O)Nc1ccccc1C(=O)N1CCOCC1	i
COC(=O)Cc1ccc(NC(=S)Nc2cccc(C)n2)cc1	1%
COC(=O)CC1=Nc2ccccc2NC(=O)C1	i
N#C/C(=C\c1cccc(F)c1)c1nc2ccccc2[nH]1	5%
CC(C)(C)c1cc(Cl)ccc1OCCCN1CCCCC1	9%
Cc1ccc(S(=O)(=O)N2CCN(C(=O)CSc3nnc4sc5ccccc5n34)CC2)cc1	2%
O=C(COc1ccc2c(-c3ccccc3)cc(=O)oc2c1)c1cccc([N+](=O)[O-])c1	i
COC(=O)Nc1ccc(S(=O)(=O)Nc2onc(C)c2C)cc1	i
O=C(O)c1ccc2c(c1)C(=O)N(c1nc3ccccc3s1)C2=O	i
O=C(OCc1c(Cl)cccc1Cl)c1cccc(-c2nnc(-c3ccccc3)o2)c1	i
COc1ccc(S(=O)(=O)NCCC(C)C)cc1OC	i
Nc1ncnc(Nc2ccc(Nc3ccccc3)cc2)c1[N+](=O)[O-]	5%
Cc1[nH]n2c(=O)c(C#N)c(-c3ccccc3)nc2c1-c1ccccc1	43%
O=C(Nc1cc([N+](=O)[O-])ccc1N1CCCCC1)c1ccccc1	i
O=C(O)C1CC=CCC1C(=O)N1CCN(C/C=C/c2ccccc2)CC1 (stereo not given)	5%
COc1cc([N+](=O)[O-])ccc1-n1c(C)cc(CO)c1C	2%
COC(=O)CC(N)c1ccc(OC)c2ccccc12 (stereo not given)	i
COc1cc(COc2ccc3c4c(c(=O)oc3c2C)CCC4)cc(OC)c1OC	i
CCCNCc1ccc2c(c1)n(C)c(=O)n2C	0%
CC(=O)Nc1cccc2ccc(O)cc12	i
COc1cc(C(=O)NC(C)(C)C)ccc1OC(C)C	i
COc1ccc(-c2csc(NC(=O)c3sc4ccccc4c3Cl)n2)cc1	2%
Cc1ccc(C)c(-c2nc(-c3cccnc3)no2)c1	i
Cc1onc(-c2ccccc2Cl)c1C(=O)Nc1nc2c(s1)CCCC2	1%
COc1cc(NC(=O)CCN2CCOCC2)cc(OC)c1	i
CCC(=O)N1CCN(c2ccc(NC(=O)CC(C)C)cc2)CC1	i
COC(=O)c1ccc(NC(=O)C(C)(C)Oc2ccc(Cl)cc2)cc1	i
CC12CCC(C(=O)NNC(=O)COc3ccccc3)(OC1=O)C2(C)C (stereo not given)	i
C=CCc1cccc2cc(C(=O)N3CCN(c4cc(C)ccc4C)CC3)c(=O)oc12	2%

Rewritten as a markdown table: 21 of the compounds above.
| compound | Mtb H37Rv |
| --- | --- |
| Cc1ccc(S(=O)(=O)N2CCN(C(=O)CSc3nnc4sc5ccccc5n34)CC2)cc1 | 2% |
| O=C(COc1ccc2c(-c3ccccc3)cc(=O)oc2c1)c1cccc([N+](=O)[O-])c1 | i |
| COC(=O)Nc1ccc(S(=O)(=O)Nc2onc(C)c2C)cc1 | i |
| O=C(O)c1ccc2c(c1)C(=O)N(c1nc3ccccc3s1)C2=O | i |
| O=C(OCc1c(Cl)cccc1Cl)c1cccc(-c2nnc(-c3ccccc3)o2)c1 | i |
| COc1ccc(S(=O)(=O)NCCC(C)C)cc1OC | i |
| Nc1ncnc(Nc2ccc(Nc3ccccc3)cc2)c1[N+](=O)[O-] | 5% |
| Cc1[nH]n2c(=O)c(C#N)c(-c3ccccc3)nc2c1-c1ccccc1 | 43% |
| O=C(Nc1cc([N+](=O)[O-])ccc1N1CCCCC1)c1ccccc1 | i |
| O=C(O)C1CC=CCC1C(=O)N1CCN(C/C=C/c2ccccc2)CC1 (stereo not given) | 5% |
| COc1cc([N+](=O)[O-])ccc1-n1c(C)cc(CO)c1C | 2% |
| COC(=O)CC(N)c1ccc(OC)c2ccccc12 (stereo not given) | i |
| COc1cc(COc2ccc3c4c(c(=O)oc3c2C)CCC4)cc(OC)c1OC | i |
| CCCNCc1ccc2c(c1)n(C)c(=O)n2C | 0% |
| CC(=O)Nc1cccc2ccc(O)cc12 | i |
| COc1cc(C(=O)NC(C)(C)C)ccc1OC(C)C | i |
| COc1ccc(-c2csc(NC(=O)c3sc4ccccc4c3Cl)n2)cc1 | 2% |
| Cc1ccc(C)c(-c2nc(-c3cccnc3)no2)c1 | i |
| Cc1onc(-c2ccccc2Cl)c1C(=O)Nc1nc2c(s1)CCCC2 | 1% |
| COc1cc(NC(=O)CCN2CCOCC2)cc(OC)c1 | i |
| CCC(=O)N1CCN(c2ccc(NC(=O)CC(C)C)cc2)CC1 | i |

(list continues)
SMILES	Mtb H37Rv
Cc1ccc(OCCCn2ccnc2)c([N+](=O)[O-])c1	1%
CCn1c(SCC(=O)Nc2nc(-c3ccccc3)c(C)s2)nnc1C(NC(=O)c1ccc(C)cc1)C(C)C (stereo not given)	8%
COC(=O)c1cc(-c2cccnc2)n[nH]1	i
S=C(NCc1ccccn1)Nc1ccc2c(c1)OCO2	i
CC(=O)c1nc(N2C(=O)CC(Cc3cccc(C)c3)C2=O)sc1C (stereo not given)	i
CCOC(=O)N1C(=O)c2ccccc2S1(=O)=O	i
CCCCn1c(=NC(=O)c2ccc(Br)o2)c(C(=O)OCC)cc2c(=O)n3ccccc3nc21	i
S=c1[nH]nc(-c2ccncc2)n1Cc1ccco1	i
O=C(CSc1nnc(-c2ccccc2)n1-c1ccc(F)cc1)N1CCCCCC1	i
COC(=O)C1C2C=CC3(CN(c4ccccc4Br)C(=O)C13)O2 (stereo not given)	i
Cc1cc(=O)oc2c(CN(C)Cc3ccccc3)c(O)ccc12	i
Cc1ccc2nc(N/N=C\c3ccc([N+](=O)[O-])o3)nc(-c3ccccc3)c2c1	3.6µg/mL*
CCOC(=O)c1c(N)nn(C(C)=O)c1-c1ccccc1	i
COc1ccc(C(=O)CSc2nnc(-c3cccc4ccccc34)o2)cc1	i
O=S(=O)(c1ccccc1)N1CCN(c2ncnc3scc(-c4ccccc4)c23)CC1	i
O=C1CCCN1CCC1CCN(C2CC(=O)N(Cc3ccc(N4CCCC4=O)cc3)C2=O)CC1 (stereo not given)	i
COc1ccc(C(=O)Nc2ccccc2)cc1S(=O)(=O)N1CCCc2ccccc21	7%
Cc1c(NC(=S)NC(=O)c2cncc(Br)c2)cccc1-c1nc2ccccc2o1	i
CCC(C)c1ccc(NC(=S)N2CCN(Cc3cnn(CC)c3C)CC2)cc1 (stereo not given)	i
Cc1ccc(C(=O)NC(=S)Nc2ccccc2C(F)(F)F)c(C)c1	i
CCc1ccccc1N(CC(=O)Nc1cccc(F)c1)S(C)(=O)=O	i
O=C(Nc1ccc([N+](=O)[O-])cc1)Nc1ccc2c(c1)C(=O)OC2	i
COc1ccccc1CN1CCN(C2CCC(C)CC2)CC1 (stereo not given)	i
COc1cc(C(=O)Nc2ccc(N3CCN(C)CC3)cc2)ccc1OCc1ccc(Cl)cc1	2%
O=C(Nc1ccc(Br)cc1F)C(=O)N1CCCCC1	4%
COCCNC(=O)CN(C)S(=O)(=O)c1ccc2ccccc2c1	i
CC(C)(C)OC(=O)CN(c1ccc([N+](=O)[O-])cc1)S(=O)(=O)c1ccccc1	i
Cc1cc(=O)[nH]c(SC(C)C(=O)Nc2ccc(S(N)(=O)=O)cc2)n1 (stereo not given)	i
COC(=O)Cc1ccc(NC(=S)N2CCC(C(N)=O)(N3CCCCC3)CC2)cc1	i
COc1ccc(NC(=O)c2ccc(Cl)c(S(=O)(=O)N3CCCCCC3)c2)cc1	i
COc1ccc(C(=O)NC(=S)Nc2ccc(N3CCOCC3)cc2)cc1Br	i
O=Cc1ccc(OCC(=O)Nc2ccc(F)cc2)c(Br)c1	i
CC(=O)OC1c2ccccc2NC(c2ccccc2)C1(C)C (stereo not given)	i
COC(=O)C(C)NC(=O)c1cccc(C)c1 (stereo not given)	i
CCOc1ccc(C2Nc3ccc(C(=O)c4ccccc4)cc3NC3=C2C(=O)CCC3)cc1 (stereo not given)	?
COc1c(C)cc(S(=O)(=O)N2CCCC2)c(C)c1C	i
CC1=NN(C(=O)c2ccc(C)o2)C(O)(c2ccccc2)C1 (stereo not given)	2%
COc1ccc(CCNC(=O)COc2ccc([N+](=O)[O-])cc2)cc1	i
COC(=O)c1cc(Br)ccc1NC(=O)c1ccc(OC)c(OC)c1	30%
CCn1c2ccccc2c2nnc(SCC(=O)N3CCCc4ccccc43)nc21	i
COc1ccc(/C(N)=N/OC(=O)CC2CCCCC2)cc1OC	i
O=C(Nc1ccc(C(=O)N2CCCC2)cc1)c1cccnc1	i
COc1ccc(C(C)NC(=O)c2ccccc2Br)cc1OC (stereo not given)	i
Cn1c(Cc2ccccc2)nnc1SCCOc1ccccc1	0%
O=C(CN1CCCCCC1)NCc1ccccc1	i
COc1ccc(/C=C/C(=O)NCC2COc3ccccc3O2)cc1OC (stereo not given)	i
CN(CC(=O)N1CCN(Cc2ccccc2)CC1)S(=O)(=O)c1ccc2ccccc2c1	i
CCOc1ccc(-n2c(SCC(=O)N3CCCC3)nnc2-c2ccccc2)cc1	i
CCOc1cccc(CNCc2ccncc2)c1	i
COC(=O)c1c(-c2ccc(C)cc2)csc1NC(=O)c1ccc(F)cc1	i
O=C(O)CN(c1ccc(Br)cc1)S(=O)(=O)c1ccccc1	i
Cc1ccc(NC(=O)c2ccc(N(C)S(=O)(=O)c3ccccc3)cc2)cc1C	10%
COc1ccc(C(C)(C)C)cc1S(=O)(=O)N1CCN(C)CC1	10%
COc1ccc(OC)c(NC(=O)c2cc(-c3ccc(OC)c(OC)c3)nc3ccccc23)c1	i
COc1ccc(-c2nc3ccccc3n2CCCOc2ccccc2)cc1OC	26%
COc1cccc(NC(=O)c2c(NC(=O)c3ccccc3Cl)sc(C)c2C)c1	2%
O=C(CCN1C(=O)c2ccccc2C1=O)Nc1cccc(Br)c1	i
CN1C2CCC1CC(OC(=O)CCN1CCCC1)C2 (stereo not given)	i
Cc1c(OCC(=O)c2ccc(Br)cc2)ccc2c(C(F)(F)F)cc(=O)oc12	4%
Cc1ccccc1OCc1nc(C#N)c(N2CCN(c3ccccc3)CC2)o1	9%

Screening data deposited in PubChem by Southern Research Institute.

This is a subset, so the mix of outcomes need not match the whole.
